Mtb betalactam: beta-lactam sensitization of Mtb H37Rv; actives 0.27% (n = 330,000); M. tuberculosis H37Rv growth with meropenem, percent inhibition; hits of this screen are not shown here; inhibition, % at 25 µM; AID 434955;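 active = about 74% or more and at least 40 points above the plate without the antibiotic, then above 30% in a dose series; inconclusive = first-round hits that could not be retested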;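 note: growth measured after seven days incubation then overnight dye step; 0% = bacteria only wells and 100% = bacteria with antibiotic; twin plates without the antibiotic show which effects depend on it; some results filed as inactive read as strong as hits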
RecA splice inh: inhibitors of M. tuberculosis RecA intein splicing. P9WHJ3. AID 2221. actives 0.75% (n = 290,000). inhibition, %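 (about 9 µM by stock and volumes)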. cell-free RecA intein splicing, fluorescence; in the data active = inhibition above about 30%; inconclusive = no clear call, values can overlap the other calls;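 note: 0% = vehicle wells and 100% = reference inhibitor control wells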
Target sequence (P9WHJ3 whole entry, looked up, canonical isoform): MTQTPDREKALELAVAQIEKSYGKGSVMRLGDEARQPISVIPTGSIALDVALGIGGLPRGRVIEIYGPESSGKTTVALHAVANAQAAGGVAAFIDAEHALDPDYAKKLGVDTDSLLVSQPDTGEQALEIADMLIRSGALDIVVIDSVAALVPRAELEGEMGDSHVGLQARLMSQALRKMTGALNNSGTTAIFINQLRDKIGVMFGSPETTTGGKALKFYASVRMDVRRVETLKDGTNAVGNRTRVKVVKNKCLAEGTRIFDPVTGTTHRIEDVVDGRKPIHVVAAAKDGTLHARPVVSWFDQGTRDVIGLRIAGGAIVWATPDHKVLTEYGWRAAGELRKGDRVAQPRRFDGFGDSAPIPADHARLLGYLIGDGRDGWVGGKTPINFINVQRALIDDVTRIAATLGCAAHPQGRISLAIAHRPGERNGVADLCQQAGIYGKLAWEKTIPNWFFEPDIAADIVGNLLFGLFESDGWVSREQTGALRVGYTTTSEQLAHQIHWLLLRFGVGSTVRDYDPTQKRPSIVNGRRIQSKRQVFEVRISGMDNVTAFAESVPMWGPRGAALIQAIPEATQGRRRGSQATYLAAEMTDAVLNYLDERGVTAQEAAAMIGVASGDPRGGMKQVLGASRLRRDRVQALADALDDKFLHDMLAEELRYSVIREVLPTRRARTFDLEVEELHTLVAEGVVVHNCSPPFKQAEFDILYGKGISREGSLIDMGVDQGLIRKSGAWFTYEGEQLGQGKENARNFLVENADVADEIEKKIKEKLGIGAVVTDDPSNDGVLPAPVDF
YopH inh: YopH (Yersinia) phosphatase inhibition | AID 898 | fluorescence Ex485/Em525 | inhibition, %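 (about 10 µM by stock and volumes)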 | actives 0.16% (n = 140,000);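 active = inhibition of 50% or more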;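 note: controls were vehicle for no effect and minimum signal wells for full effect; inactives centre near -20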
Arbovirus inh: antivirals against arbovirus infection | actives 0.37% (n = 200,000) | AID 1251 | inhibition, % at 10 µM | arbovirus infection cell-based antiviral screen;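 active = inhibition from about 30%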;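 note: bluetongue infection of BSR cells; cell survival read as ATP light after 72 h; 0% = infected wells without compound and 100% = uninfected wells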
Mtb growth: M. tuberculosis H37Rv growth inhibitors, H37Rv strain (AID 1626) | M. tuberculosis H37Rv growth inhibition; higher % means a stronger effect | inhibition, % at 10 µM, or IC50 in µM where a hit was titrated | actives 0.95% (n = 220,000);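 active = confirmed in a dose series; inconclusive = inhibition above 80% but not taken into the dose series; inactive = below 80% or under 30% at every dose of the series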;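 note: bacteria incubated seven days before Alamar blue readout; 0% = bacteria only wells and 100% = bacteria with antibiotic wells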
Arbovirus inh repeat: second read-out of Arbovirus inh, no call of its own (marks repeat the call); inhibition, %; measured here: 10K subset replicate screen; many hits read low in the repeat;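 first of two repeat runs on a subset; 0% = infected and 100% = uninfected wells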
* marks the source's active call; other numbers are inactive results; i = inactive; ? = inconclusive; · = no result given. The list is partial. The share of hits here may be higher or lower than overall.

SMILES	Mtb betalactam	RecA splice inh	YopH inh	Arbovirus inh	Mtb growth	others
O=C(NC(=S)Nc1cc(S(=O)(=O)N2CCOCC2)ccc1N1CCOCC1)c1ccco1	-2	-3.0	·	6	-10%
CCOc1ccc(CN(C)CC(=O)Nc2ccc(N3CCOCC3)cc2)cc1OC	4	-1.2	1	-10	-7%
CC(C)(C)OC(=O)[C@H](Cc1ccccc1)NC(=O)c1[nH]cnc1C(=O)Nc1cccc(Cl)c1	-6	-0.7	·	·	15%
CCn1c(C(=O)N2CCCC(C(=O)NCCCc3ccccc3)C2)cc2sccc21 (centres undefined)	-11	4.1	-10	-1	3%
Cc1ccc2nc(-c3ccc(NC(=O)COC(=O)c4ccc(=O)[nH]c4)cc3)sc2c1	0	-1.0	0	-3	4%
COc1ccc(NC(=O)c2coc3ccccc23)cc1OC	-2	2.5	-36	11	-1%
CCOc1ccccc1CN1CCN(Cc2ccc(C)o2)C(CCO)C1 (centres undefined)	-3	-1.1	·	14	3%
CCN(CC)C(=O)CN(C#N)c1nc(Cl)nc(N(C)C)n1	1	2.3	·	-5	-5%
COc1ccccc1-n1c(C)nc2cc(C(=O)NCCN3CCOCC3)ccc21	-5	-3.6	·	-4	2%
Cc1ccc(NC(=S)NC(=O)c2ccc(Br)o2)c(C)c1	-3	-5.0	·	13	5%

In the list so far, these contain four or more nitrogen atoms:
SMILES	Mtb betalactam	RecA splice inh	YopH inh	Arbovirus inh	Mtb growth	others
O=C(NC(=S)Nc1cc(S(=O)(=O)N2CCOCC2)ccc1N1CCOCC1)c1ccco1	-2	-3.0	·	6	-10%
CC(C)(C)OC(=O)[C@H](Cc1ccccc1)NC(=O)c1[nH]cnc1C(=O)Nc1cccc(Cl)c1	-6	-0.7	·	·	15%
CCN(CC)C(=O)CN(C#N)c1nc(Cl)nc(N(C)C)n1	1	2.3	·	-5	-5%
COc1ccccc1-n1c(C)nc2cc(C(=O)NCCN3CCOCC3)ccc21	-5	-3.6	·	-4	2%

More compounds follow:
SMILES	Mtb betalactam	RecA splice inh	YopH inh	Arbovirus inh	Mtb growth	others
CC(C)CCN1CCN(Cc2coc3ccccc3c2=O)CC1CCO (centres undefined)	-4	-2.5	·	·	·
O=P(O)(CN1CCCCCC1)C1Cc2ccccc2C1	-9	-0.8	·	·	5%
CCN(CC)C(=O)C(=O)N/N=C/c1ccc(F)cc1	4	-3.6	·	-1	-3%
NS(=O)(=O)c1ccc(CCNC(=O)c2ccncc2)cc1	8	-9.8	·	·	·
COC(=O)C1=C(N)Oc2cc(C)[nH]c(=O)c2C1c1ccc(Cl)cc1 (centres undefined)	-4	-3.0	·	·	-8%
COc1cc(CN2CCNC(=O)C2CC(=O)NC2CCCCC2)cc(OC)c1 (centres undefined)	-2	-2.1	·	·	·
COc1ccc(NS(=O)(=O)c2c(C)cc(C)cc2C)cn1	-5	1.3	·	·	·
COc1ccc(N2CCN(C(=O)c3ccccc3NS(=O)(=O)c3ccc(C)cc3)CC2)cc1	-2	6.9	·	·	·
CC(C)(C)NC(=O)c1cccc(NC(=O)Cc2cccs2)c1	-3	-2.7	·	-1	-11%
Cc1ccc(C(O)(C(=O)NNS(=O)(=O)c2ccc(C)cc2)c2ccc(C)cc2)cc1	10	-0.1	-18	11	4%
COc1ccc(C2SCC(=O)Nc3c2c(C)nn3-c2ccccc2)cc1OC (centres undefined)	-2	1.4	-10	-3	-7%
Cc1ccc(-c2cc(-c3ccco3)c3c(N)c(C(=O)NN)oc3n2)cc1	20	-73	·	·	11%
Cc1ccccc1CNC(=O)c1cc2ccccc2o1	2	1.8	·	·	·
Cc1ccccc1N1CC(C(=O)Nc2ccc3c(c2)OCO3)CC1=O (centres undefined)	3	7.8	·	·	·
Cc1ccc(C)c(S(=O)(=O)N/N=C/c2cccnc2)c1	-2	3.3	-34	-4	-4%
COc1cccc(NC(=S)N(CCCN2CCOCC2)C(C)c2cc3ccccc3o2)c1 (centres undefined)	-9	-1.9	·	4	-10%
O=C(Nc1ccc(F)cc1)Nc1ccc(Cl)cn1	6	-1.4	-3	-14	1%
CCn1cc(C(=O)NCCOC)c(=O)c2ccc(C)nc21	-5	-7.0	-10	14	2%
COc1cccc(OC)c1C(=O)NC(=S)Nc1ccc2c(c1)C(=O)N(C)C2=O	-10	2.5	-24	-2	-7%
COc1cccc(C2CC(=O)N3CN(c4cccc(Cl)c4C)CSC3=C2C#N)c1OC (centres undefined)	-11	4.0	-31	11	-2%	Arbovirus inh repeat=-1

The last 3 compounds of the section above open the next one.
SMILES	Mtb betalactam	RecA splice inh	YopH inh	Arbovirus inh	Mtb growth	others
CCn1cc(C(=O)NCCOC)c(=O)c2ccc(C)nc21	-5	-7.0	-10	14	2%
COc1cccc(OC)c1C(=O)NC(=S)Nc1ccc2c(c1)C(=O)N(C)C2=O	-10	2.5	-24	-2	-7%
COc1cccc(C2CC(=O)N3CN(c4cccc(Cl)c4C)CSC3=C2C#N)c1OC (centres undefined)	-11	4.0	-31	11	-2%	Arbovirus inh repeat=-1
O=C(Cn1c(-c2cscn2)nc2ccccc21)Nc1ccc2ccccc2c1	0	2.0	-21	10	6%
Nc1nnnn1/N=C/c1cc(Cl)cc(Cl)c1O	2	i	·	·	·
COc1ccccc1OCC(=O)N1CCN(Cc2ccc3c(c2)OCO3)CC1	1	-0.7	·	1	-9%
COc1ccccc1NC(=O)c1ccc(NS(=O)(=O)c2ccc(F)c(F)c2F)cc1	19	0.5	-21	10	-4%
Cc1noc2ncnc(Sc3ccccc3Cl)c12	100	45*	-22	-45	9%
C=CCC1NS(=O)(=O)OC2CCCCC12 (centres undefined)	-7	-0.7	·	·	·
Cc1oc2c(CN3CCOCC3)c(O)ccc2c(=O)c1-c1ccccc1	7	-0.7	-48	-3	-1%
CC1(C)CC(=O)c2sc(NC(=O)C3COc4ccccc4O3)nc2C1 (centres undefined)	13	1.3	8	10	-1%
Cc1cc(C)cc(NC(=O)C2CCCN(c3nc(C)cc(C)n3)C2)c1 (centres undefined)	-2	-1.6	-38	-7	1%
COc1cccc(CN(C(=O)c2cc3ccccc3oc2=O)C2CC2)c1	-2	-1.6	18	1	-4%
Fc1ccc(C(c2nnnn2C2CCCC2)N(Cc2ccco2)CC2CCCO2)cc1 (centres undefined)	0	16	8	-14	1%
Cc1cccc2cc(CN(Cc3ccc(F)cc3)C(=O)C(F)(F)F)c3nnnn3c12	10	-1.5	-1	-11	-3%
COCCn1c(C)cc(C(=O)COC(=O)c2ccc(NC(=O)CC#N)cc2)c1C	50	0.6	-6	4	1%
Cc1cc(NC(=O)OC(C)C)ccc1-c1ccc(NC(=O)OC(C)C)cc1C	1	-1.4	·	·	6%
COc1ccc(Cc2nn3c(Cn4nnc5ccccc54)nnc3s2)cc1	-5	2.7	-2	9	-9%
CCN(CC)C(=O)CC(c1ccc(N(C)C)cc1)c1c(O)cc(OC)cc1OC (centres undefined)	1	-1.5	·	·	-11%
COc1cc(C)ccc1S(=O)(=O)N1CCN(C23CC4CC(CC(C4)C2)C3)CC1	100	1.8	-19	1	-7%
Cc1cccc(C(=O)N2CCN(CCNC(=O)C(=O)Nc3ccc(F)cc3)CC2)c1	-5	-0.1	·	·	·
Cc1ccc(C)c(S(=O)(=O)Nc2ccccc2C(=O)Nc2ccc(S(=O)(=O)Nc3ncccn3)cc2)c1	12	3.5	-36	4	1%
CCC(NC(=O)/C(=C\c1ccc2c(c1)OCO2)NC(C)=O)C(=O)O (centres undefined)	1	-7.0	-8	7	2%
COc1cccc(NC(=O)CCS(=O)(=O)c2cccs2)c1	-5	2.2	-7	-2	2%
Cc1ccc(N2CC(C(=O)N3CCC(C(=O)Nc4ccc(Br)cc4)CC3)CC2=O)cc1 (centres undefined)	45	1.2	·	·	·
CCS(=O)(=O)c1ccc2oc(SCC(=O)NCCc3ccc(F)cc3)nc2c1	3	0.8	·	-2	3%
COc1ccccc1N1CCN(CC(C)N(C(=O)C2CCCCC2)c2ccccn2)CC1 (centres undefined)	6	3.0	·	·	·
CCC(C)N1C(=O)CCC1C(=O)NCCc1ccc(Cl)cc1 (centres undefined)	6	0.7	·	·	·
COc1ccc(NC(=O)COC(=O)CCCc2c[nH]c3ccccc23)cc1	20	2.1	-24	5	2%
CSCCC1NC(=O)N(CC(=O)Nc2c(Cl)cc(Cl)cc2Cl)C1=O (centres undefined)	1	-2.1	8	3	0%
Cc1ccccc1N(CC(=O)NCCSC1CCCCC1)S(=O)(=O)c1ccccc1	1	8.4	-39	-25	1%
O=C(Nc1ccccc1)N1CCc2ccccc21	2	6.8	-30	-4	-3%
COc1ccc(C2=C(C)CC(C)(C)NC2=O)cc1OC	-14	1.0	-38	0	6%

Grouped by structure: the compounds so far containing two or more sulfur atoms (5)
SMILES	Mtb betalactam	RecA splice inh	YopH inh	Arbovirus inh	Mtb growth	others
O=C(NC(=S)Nc1cc(S(=O)(=O)N2CCOCC2)ccc1N1CCOCC1)c1ccco1	-2	-3.0	·	6	-10%
Cc1ccc(C)c(S(=O)(=O)Nc2ccccc2C(=O)Nc2ccc(S(=O)(=O)Nc3ncccn3)cc2)c1	12	3.5	-36	4	1%
COc1cccc(NC(=O)CCS(=O)(=O)c2cccs2)c1	-5	2.2	-7	-2	2%
CCS(=O)(=O)c1ccc2oc(SCC(=O)NCCc3ccc(F)cc3)nc2c1	3	0.8	·	-2	3%
Cc1ccccc1N(CC(=O)NCCSC1CCCCC1)S(=O)(=O)c1ccccc1	1	8.4	-39	-25	1%

Other compounds follow:
SMILES	Mtb betalactam	RecA splice inh	YopH inh	Arbovirus inh	Mtb growth	others
Cc1ccccc1OCc1n[nH]c(=S)n1-c1ccccc1	0	-0.2	·	3	6%
Cc1nnc(SCC(=O)c2cc(C)n(-c3c(C)n(C)n(-c4ccccc4)c3=O)c2C)s1	-1	-3.5	-29	-4	-9%
COc1ccc(OC(C)c2nnc(N)s2)cc1 (centres undefined)	-2	-1.8	·	-1	0%
CCC1CCCCN1CC(=O)c1c(C)[nH]c2cc(C)ccc12 (centres undefined)	-3	-0.8	·	·	·
N#CC1=C(SCC(=O)c2cc3ccccc3oc2=O)NC(=O)C(C#N)C12CCCC2 (centres undefined)	7	1.5	-31	14	-7%
O=C(Cn1c(NCCO)nc2ccccc21)c1ccc(Cl)cc1Cl	1	2.2	·	·	·
O=C(NC1CCS(=O)(=O)C1)c1c(NC(=O)C2COc3ccccc3O2)sc2c1CCCC2 (centres undefined)	81	-1.9	-18	-1	29%
Cc1ccc(-c2ccc(NC(=O)C3C4C=CC(C4)C3C(=O)O)cc2)o1 (centres undefined)	97	-0.9	-31	-9	67%
C=CCOC(=O)CN1C(=O)c2ccccc2C1=O	-9	1.1	-42	3	-3%
O=C(N/N=C/c1ccc([N+](=O)[O-])o1)c1ccc2c(c1)OCO2	100	-4.7	·	·	·
COCCNC(=O)CN(c1ccccc1OC)S(C)(=O)=O	-5	0.2	-48	3	-3%	Arbovirus inh repeat=9
Clc1ccc(/C(Cc2nc3ccccc3[nH]2)=N\Nc2ccccc2)cc1	96	-1.3	·	-24	?
O=C(NC12CC3CC(CC(C3)C1)C2)N1CCN(C(=O)c2ccco2)CC1	4	-1.5	·	1	5%
Cc1ccc(NC(=O)c2sc(N)nc2-c2ccc([N+](=O)[O-])cc2)cc1C	2	0.3	·	·	1%
CCOC(=O)c1c(-c2ccccc2)csc1/N=C/C1C(=O)CCCC1=O	2	1.3	-22	-3	6%
CCOC(=O)C(O)(c1ccc(NC(=O)NC)cc1)C(F)(F)F (centres undefined)	0	-2.1	·	·	-13%
CC(=O)C1C(=O)NC23CCCCC2C1c1ccccc1O3 (centres undefined)	4	-1.0	-10	6	-2%
CCCC(C)NCC(=O)Nc1ccccc1-c1ccccc1 (centres undefined)	3	1.5	8	-14	-7%
O=C(COC(=O)c1cccc(-n2cnnn2)c1)c1ccccc1	-8	-1.0	·	·	·
O=C(Oc1ccc([N+](=O)[O-])cc1)c1cc(-c2ccccc2)nc2ccccc12	-3	9.1	-27	6	7%
O=C1N(O)C2(C=CCCC2)/C(=N\O)C12CCCCC2 (centres undefined)	96	-12	-54	5	-9%	Arbovirus inh repeat=1
CC(C)C[C@H](NC(=O)c1[nH]cnc1C(=O)Nc1ccc(CNC(=O)OC(C)(C)C)cc1)C(=O)OC(C)(C)C	1	-0.8	·	·	19%
Cn1c2ccccc2n2c(=O)c(=O)n(CC(=O)c3ccc(F)cc3)nc12	-1	-7.3	-29	18	-7%
COc1ccc(N2CCN(C(=O)c3cccc(Br)c3)CC2)c([N+](=O)[O-])c1	1	2.4	·	-6	-1%

Screening results (PubChem BioAssay)
